High-throughput results: PubChem, several laboratories
RGS16-Gao HTS: regulators of human RGS16-Galphao interaction; O15492+P09471; bead-based flow cytometry RGS16-Galphao binding, fluorescence; actives lie on both sides; binding response (% of control), % at 10 µM; 220,000 compounds, 0.38% hits; AID 1441;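 active = below 25% or above 175%, edge rows of some plates excepted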;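 note: Galphao activated by GDP with aluminum fluoride before binding; 100% = wells without compound and 0% = beads without RGS; some results beyond the cut were filed as inactive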
Target sequence (O15492 whole entry, looked up): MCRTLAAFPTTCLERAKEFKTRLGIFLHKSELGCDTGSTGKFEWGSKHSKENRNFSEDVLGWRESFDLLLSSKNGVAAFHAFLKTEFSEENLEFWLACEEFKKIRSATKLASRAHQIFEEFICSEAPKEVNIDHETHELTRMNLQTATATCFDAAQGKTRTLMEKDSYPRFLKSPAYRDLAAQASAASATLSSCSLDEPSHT
Target sequence (P09471 whole entry, looked up): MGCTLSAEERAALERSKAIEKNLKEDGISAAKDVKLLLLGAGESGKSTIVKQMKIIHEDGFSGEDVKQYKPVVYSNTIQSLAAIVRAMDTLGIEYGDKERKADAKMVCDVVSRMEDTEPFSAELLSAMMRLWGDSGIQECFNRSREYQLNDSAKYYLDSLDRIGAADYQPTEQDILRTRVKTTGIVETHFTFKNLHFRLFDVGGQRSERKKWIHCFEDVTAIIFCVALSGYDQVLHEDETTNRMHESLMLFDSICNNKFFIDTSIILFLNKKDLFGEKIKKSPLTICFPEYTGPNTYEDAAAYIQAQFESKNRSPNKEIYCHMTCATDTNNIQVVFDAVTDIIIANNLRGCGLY
INS promoter inh: TRM-6 insulin promoter activity inhibition. AID 1273. TRM-6 cells (human fetal islet line), insulin promoter-eGFP reporter, imaging; reporter expression induced with tamoxifen. 130,000 compounds, 0.9% hits. inhibition, % at 2 µM;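 active = inhibition above the mean plus 3 SD, with well images judged a real hit on visual review, cut at about 60% in these data, passing the limit was not always enough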
GALR2 ag: agonists of human galanin receptor 2 (GALR2). activation, %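 (tested at 5 µM)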. GALR2-expressing cells, agonist activation read-out. 140,000 compounds, 0.48% hits;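 active = above mean plus 3 SD of all compounds, about 5% in these data, not always enough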;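 note: 0% = vehicle buffer wells and 100% = reference agonist at full effect; tested in CHO reporter cells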
Target sequence (O43603 whole entry, looked up): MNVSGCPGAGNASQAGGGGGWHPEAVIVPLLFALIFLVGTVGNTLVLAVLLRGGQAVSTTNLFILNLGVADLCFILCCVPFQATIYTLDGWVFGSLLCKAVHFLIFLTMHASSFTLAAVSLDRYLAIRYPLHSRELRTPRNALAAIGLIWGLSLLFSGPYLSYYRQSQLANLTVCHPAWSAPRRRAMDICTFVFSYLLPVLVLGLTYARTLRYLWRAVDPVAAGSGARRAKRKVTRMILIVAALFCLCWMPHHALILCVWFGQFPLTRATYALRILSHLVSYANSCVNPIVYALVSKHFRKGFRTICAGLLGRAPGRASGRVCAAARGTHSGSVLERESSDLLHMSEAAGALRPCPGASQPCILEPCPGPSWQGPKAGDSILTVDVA
HSV replic up: increases HSV replication in cells; HSV replication augmentation in cells, fold increase; maximum fold increase; 220,000 compounds, 0.005% hits;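 active = peak rise of 1.5-fold or more in the series; tested in PC3 cells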;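 note: first round at 10 µM; read as green reporter fluorescence; hits show the peak of a series up to 25 µM; 1 = signal of infected wells without compound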
PKD1 inh: blocks activity of human protein kinase D1; PKD1 kinase fluorescence polarization assay; 200,000 compounds, 0.056% hits; inhibition, %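 (about 10 µM by stock and volumes)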; AID 797; Q15139;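 active = inhibition of 50% or more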;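 note: controls were vehicle for no effect and a reference inhibitor for full effect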
INS promoter inh cell count: further read-out of INS promoter inh, marked with its call; normalized cell count, %; measured here: cell count, toxicity; reference of the scale not given here;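 cells exposed to compound for 48 h; stained nuclei by imaging scaled within each plate; lower means fewer cells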
HSV replic up primary fold: recorded beside HSV replic up, whose call it bears; fold increase; compound at 10 µM; measured here: primary screen fold increase 10 uM; tested in PC3 cells;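 GFP signal in the first replicate; 1 = infected wells without compound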
Starred values were filed as active, the others as inactive; i = inactive; nt = not tested or not shown. Compounds as they come. Share with any hit: about 1.3%.

compound,RGS16-Gao HTS,INS promoter inh,INS promoter inh cell count,GALR2 ag,HSV replic up,HSV replic up primary fold,PKD1 inh
O=C(O)[C@@H]1CCCN1c1ncnc2sc3c(c12)CCC3,105,6,67,0.5,i,0.83,10
CCN1CCN(C(=O)Cn2cnc3sc(C)c(S(=O)(=O)N4CCN(c5ncccn5)CC4)c3c2=O)CC1,100,nt,nt,nt,i,0.92,-2
CCOC(=O)CN1C(=O)C(Sc2n[nH]c(-c3cccc(C)c3)n2)CCc2ccccc21 (configuration not stated),98,nt,nt,-2.7,i,0.95,-9
CCCn1c(=O)c(Cc2ccccc2)c(O)c2ccccc21,96,nt,nt,-1.9,i,0.91,-9
O=C(N1CCN(Cc2ccccc2)CC1)C(Cl)(Cl)Cl,72,53,131,-0.4,i,0.99,3
FC(F)(F)c1ccc(N=Cc2sc(N3CCOCC3)nc2-c2ccccc2)cc1,101,nt,nt,-1.6,i,1.1,4
Cc1c(/C(O)=C2\C(=O)C(=O)N(CCN(C)C)C2c2cccnc2)cnn1-c1ccccc1 (configuration not stated),98,15,122,-3.0,i,0.84,15
CC1CN(C2CCN(S(=O)(=O)c3ccc(F)cc3)CC2)CC(C)O1 (configuration not stated),110,nt,nt,-2.1,i,0.82,1
CCC(C)(C)n1nnnc1C(c1ccccn1)N1CCN(c2cccc(OC)c2)CC1 (configuration not stated),98,-262,99,-2.7,i,0.95,-6
COC(=O)C(CC(C)C)NC(=O)/C=C/c1ccc(Cl)cc1 (configuration not stated),108,nt,nt,nt,i,1.1,-7
COc1cc2[nH]c(=O)n(CCC(=O)NC3CCN(Cc4ccccc4)CC3)c(=O)c2cc1OC,102,-65,96,-0.9,i,1,-4
O=C(O)c1c[nH]c2ccc(F)cc2c1=O,109,28,80,nt,i,1.1,-1
CN(C)c1ccc(-c2cccc(C3CC=CC4C3C(=O)N(Cc3ccccc3)C4c3ccc(C(F)(F)F)cc3)c2)cc1 (configuration not stated),101,nt,nt,nt,i,0.63,nt
CCOC(=O)CSc1cc(=O)n(C)c2cc(Cl)ccc12,100,-62,37,0.7,nt,nt,-3
Cc1ccc(S(=O)(=O)N(Cc2cc3ccccc3[nH]c2=O)c2cccc(C)c2)cc1,100,nt,nt,nt,i,0.89,nt

Just HSV replic up and GALR2 ag, for some of the entries so far:
mol,HSV replic up,GALR2 ag
CCN1CCN(C(=O)Cn2cnc3sc(C)c(S(=O)(=O)N4CCN(c5ncccn5)CC4)c3c2=O)CC1,i,nt
CCOC(=O)CN1C(=O)C(Sc2n[nH]c(-c3cccc(C)c3)n2)CCc2ccccc21 (configuration not stated),i,-2.7
CCCn1c(=O)c(Cc2ccccc2)c(O)c2ccccc21,i,-1.9
O=C(N1CCN(Cc2ccccc2)CC1)C(Cl)(Cl)Cl,i,-0.4
FC(F)(F)c1ccc(N=Cc2sc(N3CCOCC3)nc2-c2ccccc2)cc1,i,-1.6

Additional records follow.
compound,RGS16-Gao HTS,INS promoter inh,INS promoter inh cell count,GALR2 ag,HSV replic up,HSV replic up primary fold,PKD1 inh
C=C(C)COc1ccc(-c2nc(N)ncc2Oc2ccccc2OCC)c(O)c1,90,72,172,-1.4,i,0.81,0
C=CCNC(=O)c1ccc(N(CC=C)S(C)(=O)=O)cc1,68,28,131,-4.3,i,1.1,-6
O=C(CCSc1ccc(Cl)cc1)N1CCN(c2ncccn2)CC1,102,-41,142,-0.5,i,1,-11
CC1=NN(Cc2ccccc2)C(=O)C1,79,18,114,-1.4,i,1.1,4
O=S(=O)(c1cc(Cl)ccc1Cl)N1CCN(Cc2ccc3c(c2)OCO3)CC1,106,nt,nt,-1.6,i,0.92,3
Cc1ccc(NC(=O)c2ccc(NCCCN3CCOCC3)c([N+](=O)[O-])c2)cc1Cl,103,-7,111,-3.2,i,0.66,-2
CS(=O)(=O)N1CCCC(C(=O)NC2CCCCCCC2)C1 (configuration not stated),106,nt,nt,-0.9,i,0.84,4
Cc1ccc(/C=N/Nc2nc(N3CCOCC3)nc(N3CCOCC3)n2)o1,102,nt,nt,nt,i,0.89,3
COCC(C)n1c(C)cc(C(=O)Cn2c(=O)oc3ccccc32)c1C (configuration not stated),102,79*,66*,-1.2,nt,nt,-24
CC1(C)Cc2c(sc(NC(=O)c3ccc4ncsc4c3)c2C(N)=O)C(C)(C)N1,110,-45,115,nt,i,0.69,-7
COc1cccc(C2NC(=O)NC(C)=C2C(=O)OCC2CCCO2)c1 (configuration not stated),94,nt,nt,nt,i,0.95,-6
CCOc1ccc(NC(=S)N2CCC(c3nc4ccccc4[nH]3)CC2)cc1,103,nt,nt,nt,i,0.98,1
O=C(NN=C1c2ccccc2-c2ccccc21)c1ccccc1Br,112,-20,115,-2.9,i,0.87,2
N#CCC(=O)NN=C1CCCCCCCCCCC1,103,nt,nt,-1.5,i,0.99,1
CCc1nnc(N/N=C/c2c(Cl)cccc2Cl)n1N,98,nt,nt,-2.5,i,0.82,2
Cc1ccc2nc(-c3ccccc3)cc(C(=O)NCCCn3ccnc3)c2c1,129,-60,132,-1.4,i,0.88,-14
CCC(=O)N1CCc2cc(Br)cc(S(=O)(=O)Nc3c(C)n(C)n(-c4ccccc4)c3=O)c21,103,6,81,nt,i,0.97,-6
CCCC(=O)C1=C(c2ccccc2)C(C#N)(C#N)C(C#N)=C1N,78,nt,nt,-0.5,i,1.3,-3
CSc1nc(-c2ccccc2)ccc1C(N)=O,101,-8,93,1.7,i,0.94,5
COc1ccc(CNCc2ccco2)cc1OCc1ccccc1,117,21,55,-1.9,i,0.85,-10
Cc1c(C(=O)N2CCCCC2)sc(N)c1C#N,98,-71,91,-2.1,i,0.9,-10
Cc1ccsc1/C=N/Nc1ccc(Cl)nn1,110,nt,nt,nt,i,1.1,nt
CC1Cc2ccccc2N1C(=O)COC(=O)c1ccc(Cl)nc1 (configuration not stated),98,nt,nt,nt,i,0.95,-5
Cc1cc(=O)oc2cc(OCC3CC(c4ccc(N(C)C)cc4)=NO3)ccc12 (configuration not stated),97,nt,nt,-3.1,i,0.74,11
CN1/C(=C\C(=O)c2cncc(Br)c2)C(C)(C)c2ccccc21,113,-50,50,1.5,i,0.98,-10
CCOC(=O)C1CCCN(C(=O)Cc2ccc(Cl)cc2)C1 (configuration not stated),105,-85,78,-1.7,i,1,-4
CCN(CC)C(=O)CCc1nnc(Cc2cccc(C(F)(F)F)c2)o1,81,6,77,nt,i,1.1,-5
O=C(CCNS(=O)(=O)c1ccc(Br)s1)N1CCCCC1,96,-23,88,-0.9,i,0.86,0
c1ccc(-c2noc(-c3cccnc3)n2)cc1,101,0,178,-2.8,i,0.74,4
O=C(c1ncc[nH]1)c1cccs1,93,nt,nt,nt,i,0.88,nt

The final three compounds of the section above come first, to join the parts:
compound,RGS16-Gao HTS,INS promoter inh,INS promoter inh cell count,GALR2 ag,HSV replic up,HSV replic up primary fold,PKD1 inh
O=C(CCNS(=O)(=O)c1ccc(Br)s1)N1CCCCC1,96,-23,88,-0.9,i,0.86,0
c1ccc(-c2noc(-c3cccnc3)n2)cc1,101,0,178,-2.8,i,0.74,4
O=C(c1ncc[nH]1)c1cccs1,93,nt,nt,nt,i,0.88,nt
COc1ccc(N2CCN(C(=O)CSc3ncccc3-c3nc4ccccc4[nH]3)CC2)cc1,97,-50,60,-1.0,i,1.1,-15
Cc1ccc(/C(O)=C2/C(=O)C(=O)N(Cc3cccnc3)C2c2ccccn2)cc1 (configuration not stated),103,33,113,-2.6,i,1,2
COc1ccccc1CC1S/C(=N/N=C/c2ccco2)NC1=O (configuration not stated),112,-33,90,nt,i,0.88,-1
O=C(COC(=O)c1ccccn1)Nc1c(Cl)cccc1Cl,98,14,87,-2.1,i,1,-4
CCOC(=O)c1c(C)[nH]c(C)c1C(=O)Cn1nnc(-c2ccccc2C)n1,98,nt,nt,0.0,i,0.85,-2
CC(C)n1nc(C(=O)Oc2ccc(Cl)cc2)c2ccccc2c1=O,100,7,118,0.8,i,0.96,-6
CC(=O)NCCc1ccc(S(=O)(=O)N2CCCC2)cc1,106,nt,nt,-3.6,i,0.95,-2
Cc1nnc(SCC(=O)N2CCN(S(=O)(=O)c3ccc(Cl)cc3)CC2)n(N)c1=O,98,27,87,-1.0,i,0.95,-1
COC(=O)C1=NN(C(C)=O)C2(CC(=O)N(c3cc(C)cc(C)c3)C2=O)C1 (configuration not stated),96,53,114,-0.9,i,1,-5
O=C1C2C3CCCC3=C3CCCC3C2C(=O)N1c1ccc(Cl)cc1 (configuration not stated),nt,18,113,-3.6,i,1.1,-4
COc1cc(COCC(O)CN2CCN(CCN3C(=O)c4cccc5cccc(c45)C3=O)CC2)cc(OC)c1OC (configuration not stated),103,-11,106,-2.0,i,0.67,-18
S=C(NCCc1ccccn1)Nc1ccc(Cl)cc1Cl,95,nt,nt,nt,i,0.97,-3
O=C(CSCC(=O)N1CCCCC1)Nc1nc(-c2ccccc2)c(-c2ccccc2)s1,103,-61,96,-1.1,i,0.84,-2
CC(C)C(=O)NC(c1cccs1)c1cc([N+](=O)[O-])c2cccnc2c1O (configuration not stated),94,nt,nt,-2.0,nt,nt,-2
Nc1nc(SCCOc2ccccc2)n[nH]1,118,-237,46,-1.1,i,0.75,-14
Cc1ccc(N2CCN(S(=O)(=O)N3CCOCC3)CC2)cc1C,100,nt,nt,nt,i,1.1,-11
FC(F)(F)c1cccc(N2CCN(C(=S)NC3CCCC3)CC2)c1,99,7,82,-1.7,i,0.96,-8
O=C(NCc1ccco1)/C(=C/c1cccnc1)NC(=O)c1cccc(Br)c1,99,-21,100,-1.3,i,0.78,-12
CCCCC(CCCCl)C(=O)Nc1ccccc1 (configuration not stated),103,nt,nt,nt,i,1.2,3
CN(C)c1ccc(/C=[N+](\[O-])C(C)(C)/C=N/O)cc1,100,8,68,0.2,i,1.1,14
Cc1cc(C(=O)NCC2COc3ccccc3O2)c2ccccc2n1 (configuration not stated),103,83*,104*,nt,i,0.93,4
CN(Cc1nc(-c2cccnc2)no1)S(=O)(=O)c1ccccc1,116,27,103,0.8,i,0.99,-4
CC(C)C(=O)N1CCN(c2ccc(NC(=O)c3ccc4c(c3)OCCO4)cc2Cl)CC1,100,25,115,-3.0,i,0.54,4
COc1ccc(N=Nc2nc(-c3ccccc3)c(-c3ccccc3)[nH]2)cc1,118,-10,90,-2.3,i,0.99,4
COc1cccc(NC(=O)CSc2nccn2-c2cccc(OC)c2)c1,103,61,63,-1.1,i,0.97,0
CCOC(=O)c1[nH]c2ccc(OC)cc2c1NC(=O)CCN1CCC(C)CC1,94,-24,113,0.0,i,1.1,-3
CC12CCCCN1CCCc1c2[nH]c2ccccc12 (configuration not stated),102,nt,nt,-0.5,i,0.99,-12
Cc1nn2cc(-c3ccccc3)nc2s1,87,-55,71,0.2,i,0.9,-17
COc1cccc(C(=O)Oc2cc(C)[nH]c(=O)c2[N+](=O)[O-])c1OC,108,41,104,-0.1,nt,nt,-5
CC12CCC(C(=O)O)(c3nc(C#N)c(C#N)nc31)C2(C)C (configuration not stated),102,3,159,-1.4,i,0.93,-4
